BJeLR viability: BJeLR cell viability loss | BJeLR (HRASV12) viability, CellTiter-Glo ATP luminescence, 48 h; reference of the scale not given here | inhibition, % (no concentration beside the values) | AID 1554 | 0.17% of 300,000 active;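 active = replicate mean above 50%; inconclusive = above 50% but judged a plate artefact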;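 also: 50 nL library stock added to about 25 µL; numbers are from one replicate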
ugtP null kill: compounds lethal to S. aureus RN4220 ugtP deletion mutant. growth inhibition, % (concentration not given with the values). OD600 growth, 16 h; some inactives read as strong as hits. 0.54% of 330,000 active. AID 1259309;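 active = z-score under -3 and OD600 up to 0.15 on both plates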;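 also: plate controls were untreated wells for no effect and antibiotic for full effect; wells of about 80 µL received 100 nL stock; the first replicate is given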
Mtb hypoxia inh: Mtb hypoxia fluorescent reporter inhibition | 0.1% of 300,000 active | fluorescence inhibition, % (no concentration beside the values) | M. tuberculosis hypoxia-regulated fluorescent reporter, fluorescence | AID 1159583;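 active = 35 to 45% if threefold the growth effect, above 45% if 1.5-fold the growth effect; inactive = the rest, general growth blockers included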;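 also: wells of about 50 µL received 100 nL stock; 0% = vehicle wells and 100% = reference inhibitor wells; whole bacteria with a GFP reporter of the hypoxia response; strong numbers were not always called active; many hits fall short of the cut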
Autofluor counter: compound fluorescence in toxin protease inhibitor counterscreen. 3.1% of 360,000 active. AID 624483. compound autofluorescence counterscreen, microsphere flow cytometry; stronger effect = higher value. fluorescence intensity (no concentration beside the values);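 active = at least 3 SD above the mean of all compounds, about 16000 in these data; inconclusive = too few beads counted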;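 also: 100 nL of 1 mM stock went into each well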
PrP UTR inh: suppresses PrP 5' UTR mRNA reporter expression; cell-based PrP 5' UTR mRNA reporter, plate reader; 0.35% of 340,000 active; inhibition, % (concentration not given with the values);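 active = every replicate at 50% or more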;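 also: 0 = median of the neutral control wells; tested in H4 reporter cells; numbers are from one replicate; inactives centre near -14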
Sa RN4220 lethal: kills Staphylococcus aureus RN4220. S. aureus RN4220 growth, OD600, 16 h. inhibition, % (concentration not given with the values). 0.33% of 330,000 active. AID 1259311;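 active = z-score of -3 or lower and OD600 up to 0.18 on both plates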;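 also: plate controls were untreated cells for no effect and reference antibiotic for full effect; stock transfer was 100 nL into about 80 µL; one replicate is shown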
Mtb hypoxia inh growth: also measured in Mtb hypoxia inh; calls as there; growth inhibition, %; measured here: M. tuberculosis growth (absorbance);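 0% = vehicle and 100% = reference antibiotic; read after six days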
* marks the source's active call; other numbers are inactive results; ? = inconclusive; . = not tested or not shown.

SMILES | BJeLR viability | ugtP null kill | Mtb hypoxia inh | Mtb hypoxia inh growth | Autofluor counter | PrP UTR inh | Sa RN4220 lethal
Cc1ccc(Nc2nnc(SCC(=O)NCC3CCCO3)s2)cc1C (stereo not drawn) | . | 6 | 14 | 8 | . | -29 | 6.8
COc1cc(C(C(=O)NC2CCCCC2)N(CCN2CCOCC2)C(=O)C2COc3ccccc3O2)cc(OC)c1OC (stereo not drawn) | 5 | 8 | 8 | 15 | 5239 | -45 | -0.9
Cc1ccc(-c2cn3c(n2)SCC3)cc1 | 4 | 2 | -10 | 2 | 2577 | -76 | -1.3
CCOc1ccc(NS(=O)(=O)c2cc(C(=O)N3CC(C)OC(C)C3)ccc2C)cc1 (stereo not drawn) | 8 | 10 | 12 | -4 | ? | -22 | 4.1
CCOCCn1c(=O)c2c(nc3n2CCN3c2ccc(C)cc2)n(C)c1=O | -4 | 0 | 9 | 14 | 4094 | -1 | 4.0
COc1ccc(NC(=O)CN(C)C(=O)c2ccc3c(c2)OCCO3)cc1 | -6 | 5 | -3 | -10 | ? | -15 | 2.5
Cc1nc(NC(=O)c2cc3ccccc3o2)sc1C | -3 | 8 | -6 | 8 | 4416 | -25 | -2.4
CCCOc1ccc(C(=O)CCC(=O)OCC(=O)N(C)c2c(N)n(Cc3ccccc3)c(=O)[nH]c2=O)cc1 | 2 | 9 | 5 | 3 | ? | -19 | -0.7
Cc1ccc2cc3c(nc2c1)OCC3 | -18 | 5 | . | . | 6205 | -31 | 6.1
C=CCc1cc(Cl)ccc1OCCOCCNC(C)(C)C | 4 | 5 | 6 | -5 | 2658 | -19 | -3.6
C=CCn1c(O)c(C=NCCN2CCNCC2)c(=O)[nH]c1=O | -8 | 0 | 8 | -2 | 9462 | -24 | -0.3
COc1ccccc1NC(=O)Nc1ccccc1N1CCOCC1 | -9 | 1 | 4 | 7 | 5863 | -32 | 1.3
O=C(CNC(=S)N(Cc1ccc(F)cc1)C1CCCCC1)NCCN1CCOCC1 | 6 | 3 | 14 | 12 | 4250 | -32 | 2.1
COC(=O)CSc1nnc(Cc2cc(=O)[nH]c(=O)[nH]2)n1-c1cccc(OC)c1 | -1 | -5 | 8 | 7 | 3913 | -1 | -1.1
COc1ccc(NC(=O)COc2nsnc2N2CCOCC2)cc1 | 5 | -1 | 14 | 8 | 2567 | 19 | 0.4
Cc1noc(NS(=O)(=O)c2ccc(NC(=O)C(Cl)(Cl)Cl)cc2)c1C | 1 | 8 | 8 | 12 | 5406 | -20 | 0.4
COc1cccc(N2CCN(c3ccc4nnc(CCC(=O)Nc5cc(C)ccn5)n4n3)CC2)c1 | -2 | -6 | -8 | -8 | 4505 | -12 | -5.6
CC(C(=O)N(C)C1CCCCC1)N1CCC(C(N)=O)CC1 (stereo not drawn) | -14 | 1 | 0 | -1 | 3674 | -15 | 0.7
O=C(Nc1ccc2c(c1)OCCO2)c1cccc(S(=O)(=O)N2CCOCC2)c1 | 3 | -1 | -5 | -1 | 23080* | -24 | 3.4
Cc1cccc(-n2nnc3cnn(C)c3c2=O)c1 | -6 | -3 | . | . | 2636 | -17 | 3.2
CCN1CCN(CCOc2cccc(Oc3ccccc3)c2)CC1 | 0 | 20 | 4 | 9 | 4645 | -5 | 2.2
Cc1cc2c(cc1C)CN(c1ccccc1)C2 | 1 | -1 | 11 | -7 | 3500 | -44 | 3.5
Cc1cc(=O)[nH]c2c(N=Nc3ccc(O)cc3)c(N)nn12 | -16 | 50 | 8 | -9 | 2540 | -20 | 16
COc1ccc(Br)cc1CNc1ccc(N2CCOCC2)cc1 | -3 | -3 | 8 | -3 | 3218 | -28 | 1.4
Cc1ccc(OCC(=O)OCC(=O)c2cccc([N+](=O)[O-])c2)cc1C | 2 | . | . | . | 4241 | -11 | .
O=C(COC(=O)CCc1nc2ccccc2c(=O)[nH]1)Nc1ccc(Cl)cn1 | 6 | 0 | 6 | 5 | 4421 | -15 | 4.6
Cc1ccc(NC(=O)/C(=C\c2cccc(Br)c2)NC(=O)c2ccco2)cc1 | -8 | -7 | 6 | 7 | 9170 | -7 | 2.5
O=C(COC(=O)c1ccc([N+](=O)[O-])o1)NC1CCCCC1 | . | 9 | . | . | 3633 | -16 | 5.8
O=C(NCC(c1ccco1)N1CCc2ccccc2C1)c1cccc([N+](=O)[O-])c1 (stereo not drawn) | 6 | 4 | 5 | 0 | ? | -18 | -0.6
CCOC(=O)c1cc2c(ccn2C)n1CC(=O)N(C)C | -6 | 3 | 3 | 9 | 4141 | -15 | 1.7
Cc1cccc(NC(=O)Cn2cnc3c(oc4nc5c(cc43)COC(C)(C)C5)c2=O)c1 | 3 | -3 | 3 | 3 | 2404 | -23 | 3.5
Cc1ccccc1N1CCN(C2CCCN(C(=O)c3ocnc3C)C2)CC1 (stereo not drawn) | -3 | 16 | 18 | -4 | 7404 | -9 | 1.0
OCCNCc1cc(Br)ccc1OCc1ccc(Cl)cc1Cl | 4 | -28 | 22 | 8 | 2239 | -25 | -20
COc1ccc(C(=O)NCCSC2CCCCC2)cc1 | -1 | 4 | 9 | 3 | 1980 | -80 | 7.1
NC(=O)NNc1cccc(Cl)n1 | -1 | 6 | 6 | 5 | 2769 | -18 | 4.9
CCc1ccc(C=Nn2c(COc3ccccc3)n[nH]c2=S)cc1 | . | -3 | 1 | 2 | . | . | 5.6
CCCCCCn1c(COc2ccccc2F)nnc1SCC(=O)c1c(N)n(C)c(=O)n(C)c1=O | -11 | -16 | -3 | 5 | . | . | 5.4
O=C(CCN1C(=O)C2C3C=CC(C3)C2C1=O)N1CCN(c2cccc(Cl)c2)CC1 (stereo not drawn) | -2 | 2 | . | . | 6036 | -9 | 0.8
CC(=NNc1ccc([N+](=O)[O-])cc1)c1ccc(N2CCOCC2)cc1 | . | 6 | 7 | -13 | . | . | 3.8
CCOc1nc(N=C(N)N)nc2c(C)cccc12 | 6 | . | . | . | 5596 | 3 | .
CCOc1ccccc1OC(=O)c1ccco1 | -6 | 1 | 3 | 7 | 4355 | -5 | 1.5
CC(O)(CS(=O)(=O)Cc1ccccc1)C(=O)Nc1cccc(C(F)(F)F)c1 (stereo not drawn) | 0 | 0 | 10 | 5 | 20560* | -11 | 6.8
Cc1ccc2oc(-c3cccc(NC(=O)c4cc(-n5cnnc5)ccc4Cl)c3)nc2c1 | 5 | -8 | 3 | -3 | 9859 | -24 | -2.7
COc1ccc2c(c1)C1(C)CC(C)(C)N2C(=O)N1c1ccccc1 (stereo not drawn) | -4 | 1 | . | . | 4809 | -14 | 0.2
CCOC(=O)Cn1c(=O)c2c(nc3n2CCN3Cc2ccccc2)n(C)c1=O | -4 | 0 | . | . | 4143 | -8 | 0.8
COc1ccc(C2=NS(=O)(=O)N(C)C(C(=O)Nc3ccc4c(c3)OCO4)=C2)cc1OC | 14 | 9 | -2 | -1 | 4145 | -18 | 1.7
CCn1c(SCC(=O)NC2CCCCC2)nc2ccccc2c1=O | 0 | 4 | 2 | 3 | 5858 | 0 | 0.1
O=C1CCCC2=C1C1(CCCC1)N=C(Nc1nc3ccccc3s1)N2 | -2 | -38 | -7 | 13 | 10255 | -34 | 2.8
CC(C)Cn1c(O)c(/C=C2\C=NN=C2c2ccccc2)sc1=S | 6 | 52 | 0 | 4 | 2461 | -23 | -12
Cc1ccc(NC2CC(C)NC(=S)N2)cc1 (stereo not drawn) | -4 | 5 | 10 | 19 | 4140 | -11 | 3.4
O=C(c1ccc(N2CCOCC2)nc1)N1CCOCC1 | 3 | 0 | -3 | 7 | 7981 | -19 | 2.6
FC(F)(F)c1ccccc1-c1nc(-c2ccncc2)no1 | 14 | -3 | 6 | -3 | 3878 | -35 | -1.6
COc1ccc(-n2c(C)cc(C(=O)COC(=O)Cc3n[nH]c(=O)c4ccccc34)c2C)cc1 | 0 | 1 | -4 | -2 | 2785 | -14 | -1.5
Cc1nc(C(=O)NC2CC2)sc1C1(C)CC(c2ccccc2)=NO1 (stereo not drawn) | -5 | -1 | 7 | 9 | 3948 | 2 | -1.5
NC(=O)CN1CCCC1c1ccc2c(c1)OCCO2 (stereo not drawn) | 5 | 10 | 6 | 0 | 3582 | -28 | -1.7
C/C(C=NNC(=O)Cc1cccn1C)=C\c1ccco1 | . | -2 | 3 | 9 | . | . | 3.8
CC(=O)N/C(=C\c1cccc([N+](=O)[O-])c1)C(=O)NC(C)C | -5 | 0 | 15 | 5 | 11162 | -16 | 4.5
O=C(c1ccc(Cl)s1)N1CCc2ccccc21 | -3 | 2 | 11 | 2 | 20271* | -137 | 18
COc1c(O)cc2oc(-c3ccc(O)cc3)cc(=O)c2c1O | -12 | 6 | 15 | 7 | 3307 | -30 | 7.9
O=C(CSc1nn(-c2ccc(Cl)cc2)c(=S)s1)NCC1CCCO1 (stereo not drawn) | 14 | 3 | 14 | 2 | 4423 | -7 | 2.8

The list goes on.
SMILES | BJeLR viability | ugtP null kill | Mtb hypoxia inh | Mtb hypoxia inh growth | Autofluor counter | PrP UTR inh | Sa RN4220 lethal
Cc1ccc(CS(=O)(=O)Cc2ccc(C(=O)NCCc3ccccc3)o2)cc1 | -8 | 11 | 0 | -2 | 4330 | -15 | 5.9
CCc1cc(-c2n[nH]c(C)c2-c2ccccc2Cl)c(O)cc1OC | -10 | 4 | -6 | -10 | 3989 | -15 | -10.0
CNC(=O)c1cccn(Cc2ccc(C(F)(F)F)cc2)c1=O | 0 | 3 | -3 | -16 | 4182 | -10 | 4.5
COc1ccc(NC(=O)C2CCN(S(C)(=O)=O)CC2)cc1OC | -5 | 4 | 11 | 6 | 3999 | -10 | -1.4
O=C(c1cccc(F)c1)N1CCN(Cc2cccc(Br)c2)CC1 | -9 | 5 | 1 | 12 | 3700 | -26 | 2.2
Cc1ccc(NC(=O)c2c(C(F)(F)F)nn(C)c2SCc2ccc(Cl)cc2)cc1C | -3 | -19 | 4 | -4 | 18135* | 9 | -3.3
CCOc1ccc(/C=C(\C(=O)O)c2ccc(S(=O)(=O)N3CCOCC3)s2)cc1OC | -29 | 5 | 6 | -1 | 2080 | -39 | 1.0
COc1ccc(CC(=O)Nc2cc(=O)n(C)c(=O)n2C)cc1 | 7 | -5 | 7 | -5 | 6394 | -4 | 3.3
CCOc1ccc(/C=C(/NC(=O)c2ccccc2Cl)C(=O)O)cc1 | 0 | . | . | . | 3555 | -6 | .
C=CCn1c(SCC(=O)NCc2cccs2)nnc1C1CCCCC1 | -5 | 9 | 9 | 7 | 7970 | -10 | 5.3
CC(C)CC(=O)NC(NC(=S)Nc1ccccc1)C(Cl)(Cl)Cl (stereo not drawn) | 9 | 1 | -13 | -8 | 3368 | -17 | -8.3
COc1ccc(C=NNC(=O)CN2CCCc3ccccc32)c(OC)c1 | . | -2 | 14 | 11 | . | . | 0.1

Among those listed so far, these contain a furan ring, fused or not:
SMILES | BJeLR viability | ugtP null kill | Mtb hypoxia inh | Mtb hypoxia inh growth | Autofluor counter | PrP UTR inh | Sa RN4220 lethal
Cc1nc(NC(=O)c2cc3ccccc3o2)sc1C | -3 | 8 | -6 | 8 | 4416 | -25 | -2.4
Cc1ccc(NC(=O)/C(=C\c2cccc(Br)c2)NC(=O)c2ccco2)cc1 | -8 | -7 | 6 | 7 | 9170 | -7 | 2.5
O=C(COC(=O)c1ccc([N+](=O)[O-])o1)NC1CCCCC1 | . | 9 | . | . | 3633 | -16 | 5.8
O=C(NCC(c1ccco1)N1CCc2ccccc2C1)c1cccc([N+](=O)[O-])c1 (stereo not drawn) | 6 | 4 | 5 | 0 | ? | -18 | -0.6
Cc1cccc(NC(=O)Cn2cnc3c(oc4nc5c(cc43)COC(C)(C)C5)c2=O)c1 | 3 | -3 | 3 | 3 | 2404 | -23 | 3.5
CCOc1ccccc1OC(=O)c1ccco1 | -6 | 1 | 3 | 7 | 4355 | -5 | 1.5
C/C(C=NNC(=O)Cc1cccn1C)=C\c1ccco1 | . | -2 | 3 | 9 | . | . | 3.8
Cc1ccc(CS(=O)(=O)Cc2ccc(C(=O)NCCc3ccccc3)o2)cc1 | -8 | 11 | 0 | -2 | 4330 | -15 | 5.9

(more compounds)
SMILES | BJeLR viability | ugtP null kill | Mtb hypoxia inh | Mtb hypoxia inh growth | Autofluor counter | PrP UTR inh | Sa RN4220 lethal
CC(=O)c1cccc(NC(=O)c2ccc(S(=O)(=O)N3CCCC3)cc2)c1 | -4 | -1 | 1 | 1 | 3842 | -18 | 2.5
CCCCOc1ccc(S(=O)(=O)N2CCN(C)CC2)cc1 | 2 | 0 | 16 | 23 | 4273 | -53 | 0.9
O=C(CSc1ncn[nH]1)Nc1ccnc2ccccc12 | 12 | 13 | 1 | 6 | 5591 | -3 | 1.4
COC(=O)CSc1ccc2c(N)c(C(=O)OC)sc2c1 | 3 | -4 | 4 | 1 | 9374 | -27 | 9.7
